Screening data: PubChem BioAssay, Fisher Drug Discovery Resource Center
NPYLR7 ag = activates Aedes aegypti NPYLR7 receptor | HEK293T NPYLR7/Galpha15, GCaMP6s calcium fluorescence | activation, % at 10 µM | hit rate 0.15% among 270,000; in the data active = activation above about 40%;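 note: 0% = vehicle and 100% = reference agonist at the receptor; some compounds past the cut are filed as inactive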
NPYLR7 ag max-min = further read-out of NPYLR7 ag, marked with its call; activation, %; measured here: Max-Min RFU normalised activation; some inactives read as strong as hits;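 span of the calcium signal over five minutes; 0% = vehicle and 100% = native peptide agonist; compound fluorescence can raise it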
* hit, by the source's call; & = joins results of further samples. These rows are one share of the data. The share of hits here may be higher or lower than overall.

SMILES	NPYLR7 ag	NPYLR7 ag max-min
O=S(=O)(Nc1cc(Cl)ccc1-n1cncn1)c1ccc(F)cc1	-1	12
Cc1cnc(C(=O)N2CC3(CCNCC3)CC2C(=O)O)cn1 (stereo not given)	-3	-10
Cc1ccc(NC(=O)N(Cc2cccc(OS(=O)(=O)c3ccc(F)cc3)c2)C(C)C)c(C)c1	0	16
CCOC(=O)C1CCN(C(=O)c2cccc(CSc3nc(C)cc(N(C)C4CCCCC4)n3)c2)CC1	8	6
COc1cc(C)c(S(=O)(=O)n2cccn2)cc1C(C)C	0	49
CN(C)CCNC(=O)c1ccccc1N1CCC(NC(=O)COc2ccccc2)CC1	24	15
N#Cc1ccc(S(=O)(=O)N2CSCC2C(=O)NCC(F)(F)F)cc1 (stereo not given)	-4	-8
O=C(O)CC1SC(N/N=C\c2ccc(Br)cc2)NC1=O (stereo not given)	-5	-7
N#Cc1ccc(C(=O)NNC(=O)C2C3CC4CC(C3)CC2C4)cc1 (stereo not given)	7	7
CCc1cc(=O)n2nc(NCCc3nc4ccccc4n3C(F)F)sc2n1	-2	-3
COc1ccc(Cl)cc1Cn1c(C)c(C(=O)NCc2ccc(C#N)cc2)sc1=O	3	0
Cc1ccc(-c2cnn3c(Nc4ccncc4)cc(C)nc23)cc1	4	5
COc1cc(-c2nc3cc(C)ccn3c2NC(C)(C)CC(C)(C)C)ccc1OC(=O)c1ccc(Cl)cc1Cl	10	10
CC(O)c1cccc(NC(=O)c2cnn3c2NC(c2ccccc2)CC3C(F)(F)F)c1 (stereo not given)	-1	-7
CCOC(=O)CNC(=O)CSc1ccc2nnc(-c3ccc(F)cc3)n2n1	2	28
CC(Cc1ccccc1Cl)NC(=O)c1ccccn1 (stereo not given)	1	1
CC1CN(c2ccc(Oc3ccccc3)cc2)c2nc3c(c(=O)[nH]c(=O)n3C)n2C1 (stereo not given)	7	5
Cc1n[nH]c(C)c1CN(C)C(=O)c1cc(COc2ccc(F)c(F)c2)on1	-4	-6
COc1cccc(CSc2nnc(CNC(=O)C(C)(C)C)n2-c2ccc([N+](=O)[O-])cc2)c1	6	16
COC(=O)CC1(C)Sc2ccccc2NC1=O (stereo not given)	-1	-2
O=C(C1CCOCC1)N1CCOC(CC2CCCCC2)C1 (stereo not given)	1	-1
Cc1ccc(SCCNC(=O)Cn2cnc3c(cnn3C)c2=O)cc1	17	8
CCN1CCN(C(=O)CCN(c2nc(C3CC3)nc3cc(Cl)ccc23)C2CCCCC2)CC1	6	8
Cc1c(C(=O)NCc2ccc3c(c2)OCO3)sc(=O)n1Cc1ccc2c(c1)OCO2	14	4
O=c1[nH]ncc(NCc2cc(Br)c3c(c2)OCO3)c1Cl	-6	-8

The listing continues.
SMILES	NPYLR7 ag	NPYLR7 ag max-min
CCNc1ccc(OC)nc1	55*	49*
CCSc1nc(CC(=O)NCc2ccc3c(c2)CC(C)O3)cs1 (stereo not given)	13	-1
O=C(c1ccc(-c2ccccc2)[nH]1)N1CCCC(CO)(CCc2ccccc2)C1 (stereo not given)	3	3
O=C(CSc1nnc(-c2ccncc2)n1-c1cccc(C(F)(F)F)c1)NCC1CCCO1 (stereo not given)	17	24
C=CCn1c(SCC(=O)Nc2ccccc2O)nc2sc3c(c2c1=O)CCCC3	4	0
Cc1ccc(OC(C)C(=O)NC(CS(C)(=O)=O)c2ccccc2)c(Br)c1 (stereo not given)	4	2
COCC1(Cn2cnc(-c3ccccc3)c2-c2nccn2C)CC1	-2	-3
CCc1cc2c(N3CCCC(CO)C3)ncnc2s1 (stereo not given)	5	2
CCCN1C(=O)C(=Cc2c(NCCCOC)nc3ccccn3c2=O)SC1=S	-2	29
CN(CCc1ccccc1)C1CCCN(C(=O)C2=CCCC2)C1 (stereo not given)	1	1
COc1ccc(NC(=O)C2(C)CCN2C(=O)Cc2ccccc2)cc1OC (stereo not given)	-3	-4
CC(=O)N1CCN(C(=O)CN2CCN(c3ccccn3)CC2)CC1	7	7
Cc1ccc(Cn2c(C)c(C(=O)NCc3ccc(Cl)c(Cl)c3)sc2=O)cc1	-5	-7
Nc1ccc(Cl)c(-c2nc3ccccc3o2)c1	-2	-3
O=C1Cc2cc(-c3ccc4c(c3)OCO4)ccc2N1	7	-2
CC1(C)CC(=O)c2cc3c(N)c(C(=O)Nc4cccc(Cl)c4Cl)sc3nc2C1	4	-2
O=C(NC(c1ccc(F)cc1)c1ccccn1)C1CCN(CCc2ccccc2)CC1 (stereo not given)	12	4
CC(C)Cn1c(SCc2cccc(S(=O)(=O)N3CCOCC3)c2)nnc1-c1ccccc1F	-3	-8
CC(Nc1cccc2c1OCCO2)C(=O)Nc1ccc(Cl)cc1 (stereo not given)	-4	-5
CNC(=O)c1ccc(NC(=O)CN2CCCC2c2cccn2C)cc1 (stereo not given)	14	7
NC(=O)c1nn2c(c1Cl)NC(c1cccs1)CC2C(F)(F)F (stereo not given)	1	-1
O=S(=O)(c1cccc2nonc12)N1CCC2(CCCNC2)C1 (stereo not given)	-1	2
CCCc1c(C)nn(-c2ccc(C(=O)NCc3ccc(OC)cc3OC)cc2)c1C	-19	-31
Cc1nc(CN2CCN(c3nnc(-c4ccccc4)s3)CC2)cs1	6	3
COc1cccc(-c2cc(-c3ccc(C(=O)NC4CC(C)(C)N(C)C(C)(C)C4)cc3)[nH]n2)c1	21	14

3 structures out of the list, sorted by formula weight, falling.
SMILES	NPYLR7 ag	NPYLR7 ag max-min
O=C(O)CC1SC(N/N=C\c2ccc(Br)cc2)NC1=O (stereo not given)	-5	-7
CC(Nc1cccc2c1OCCO2)C(=O)Nc1ccc(Cl)cc1 (stereo not given)	-4	-5
N#Cc1ccc(C(=O)NNC(=O)C2C3CC4CC(C3)CC2C4)cc1 (stereo not given)	7	7

Compound profiles (already shown). Order of screens: NPYLR7 ag	NPYLR7 ag max-min
`CNC(=O)c1ccc(NC(=O)CN2CCCC2c2cccn2C)cc1` (stereo not given) as listed: 14	7
`CC1(C)CC(=O)c2cc3c(N)c(C(=O)Nc4cccc(Cl)c4Cl)sc3nc2C1` as listed: 4	-2
`Cc1nc(CN2CCN(c3nnc(-c4ccccc4)s3)CC2)cs1` as listed: 6	3
`CCCc1c(C)nn(-c2ccc(C(=O)NCc3ccc(OC)cc3OC)cc2)c1C` as listed: -19	-31

Next compounds.
SMILES	NPYLR7 ag	NPYLR7 ag max-min
C=CCN1C(=O)NC(c2ccc(C(F)(F)F)cc2)C2=C1CN(Cc1ccncc1)C2=O (stereo not given)	3	12
CC1=CC[C@@H]2CN(C(=O)Cc3cc(C)no3)C[C@@H]2C1	3	1
Cc1ccc(N(CC(=O)NC(C)c2nncn2C)S(C)(=O)=O)cc1 (stereo not given)	-11	-12
CC/C=C(/C)C(=O)NC1CCN(Cc2ccc(F)c(F)c2)CC1	-6	-8
N#CC(=Cc1ccc(C#N)cc1)S(=O)(=O)c1ccc(Cl)cc1	4	4
CN(CC1CCCN(CCc2ccccc2F)C1)C(=O)c1ccc2nccnc2c1 (stereo not given)	4	1
COCc1nn2c(=O)c(NC(=O)c3ccccc3)cnc2s1	3	3
CN1C(=O)CC(C(=O)N2CC(c3cccnc3)C2)c2ccccc21 (stereo not given)	15	11
COc1ccccc1OCC1CN(C(=O)c2cccc(OC(F)F)c2)CCO1 (stereo not given)	3	1
CCNC(=O)OC1CN(C(=O)C2CCCC2)CCC(=O)N(C)c2ccccc21 (stereo not given)	4	15
O=C(C[C@@H]1CCNC[C@@H]1Cc1cc(CC2CCCCC2)on1)N1CCOCC1	-8	-17
O=C(CCSCc1nc2ccccc2c(=O)[nH]1)NCc1ccco1	4	0
O=C(CSc1nnnn1C1CC1)N(C1CCCC1)C1CCS(=O)(=O)C1 (stereo not given)	1	-1
N#Cc1ccc(CS(=O)(=O)NCc2ccc3c(c2)OCCO3)cc1	17	16
Cc1ccccc1Cn1c(C)c(C(=O)NCc2cccc(C(F)(F)F)c2)sc1=O	-8	0
CC(=O)Nc1ccc(CN2CCc3c([nH]c4ccccc34)C2C(C)(C)C)cc1 (stereo not given)	17&-3	13&-6
CCCC(=O)N1CCC1(C)C(=O)Nc1ccccn1 (stereo not given)	4	-1
O=C(NCc1ccc2sccc2c1)c1ccc(O)cc1	23	22
Cc1cc(C(=O)N(Cc2cccnc2)c2nc3c(F)cccc3s2)n(C)n1	6	2
COC(=O)c1c(C)c(C(=O)C(C)N(Cc2ccc(F)cc2)S(=O)(=O)/C=C/c2ccccc2)c(C)n1C (stereo not given)	-10	0
CCCc1cc(=O)n(CC(=O)N2CCc3ccccc32)c(-n2nc(C)cc2C)n1	-5	-1
O=C(Nc1cc(C(F)(F)F)ccc1Cl)c1c(O)c2ccccc2[nH]c1=O	12	9
O=C(c1csc(-c2ncccn2)n1)N1CCCc2cccc(F)c21	4	4
CCC(C(=O)NC(Cc1ccccc1)c1nnc(SCc2ccc(F)cc2)n1-c1cc(Cl)ccc1C)c1ccccc1 (stereo not given)	9	19
Cc1ccc(C)c(Nc2nc(NCc3ccc4c(c3)OCO4)nc3nccnc23)c1	8	6

The results go on.
SMILES	NPYLR7 ag	NPYLR7 ag max-min
CC1CCN(c2cc(=O)n(C3CCCCC3)c(=O)[nH]2)CC1	0	8
CN(CCC(=O)Nc1nnc(C2CC2)s1)Cc1nc2ccc(F)cc2[nH]1	18	8
C=C(Cl)Cn1nnnc1Cc1ccc(OC)c(F)c1	6	5
CCn1cc(CN2CCCC(CNC(=O)c3cccc4ccccc34)C2)cn1 (stereo not given)	6	2
O=C(NCCF)c1ccc(C2CCCN2)s1 (stereo not given)	6	2
CCCCc1ccc(S(=O)(=O)N2CCN(c3cc(S(=O)(=O)N4CCc5cc(OC)c(OC)cc5C4)ccc3OC)CC2)cc1	25	10
CC(C)(C)NCC(O)CON=C1c2ccccc2-c2ccccc21 (stereo not given)	-2	-3
O=c1c2ccccc2nc2c3ccccc3ncn12	-1	-3
CC(=O)OC(C)(C)C(=O)NCc1cccc(-c2ncc(-c3ccc(F)cc3)[nH]2)c1	-1	-6
Cc1ccccc1OCC(O)CN(CCN1CCOCC1)Cc1nc2scc(-c3ccccc3)c2c(=O)[nH]1 (stereo not given)	12	17
CC(C)(C)c1ccc(C(=O)OCc2cc3c(cc2[N+](=O)[O-])OCO3)cc1	-5	-5
CCc1c(C(=O)NCC2(N(C)C)CCCC2)cnn1-c1ccc(OC)nn1	-2	-5
CS(=O)(=O)c1ccc(S(=O)(=O)N2CCC(c3c[nH]c4ccc(C#N)cc34)CC2)cc1	35	33
CS(=O)(=O)NCC1(c2cccc(Br)c2)CC1	-3	-5
O=C(O)c1cc2c(ccc3cc(Br)ccc32)oc1=O	-21&9	-26&6
Cc1noc(C)c1C(=O)NCC1COc2ccccc2O1 (stereo not given)	4&7	3&8
Cc1ccc(-n2nc(C)cc2NC(=O)C2CCOC2)nn1 (stereo not given)	6	3
COC(=O)Cc1ccc(C(=O)CCl)s1	13	15
Cc1ncsc1CCC(=O)N1CCc2ccc(NC(=O)c3ccccn3)cc2C1	-6	-6
CCOC(=O)c1c(C)c(C(=O)CN(Cc2ccco2)S(=O)(=O)c2c(C)cc(C)cc2C)c(C)n1CC	-6	1
COCCCn1c(=NC(=O)C=CC=CSC)c(C#N)cc2c(=O)n3cccc(C)c3nc21	-1	-2
O=C(NC12CC3CC(C1)CC(n1ncnn1)(C3)C2)c1cn2ccsc2n1	-4	-7
O=c1oc2ccccc2n1CN1CCN(Cc2cc(=O)n3ccsc3n2)CC1	10	4
Cc1ccc2cc(C3(O)CCN(C(=O)CN4CCOC4=O)CC3)ccc2n1	0	-5
COc1ccc(/C=C2\SC(=S)N(C(C(=O)O)C(C)C)C2=O)c(OC)c1 (stereo not given)	-5	-9

Other compounds.
SMILES	NPYLR7 ag	NPYLR7 ag max-min
CCN(CC)C(=O)Oc1ccc2c(ccn2Cc2cc(OC)cc(OC)c2)c1-c1ccc(C#N)cc1	3	0
CCOC(CCN(C)C)CNC(=O)c1ccc(C#N)c(C)n1 (stereo not given)	0	-2
Cc1ccc2[nH]c3c(=O)n(CC(=O)NCc4cccs4)cnc3c2c1	0	-3
CCCCCCCn1c(CN2CCC(C)CC2)nc2c1c(=O)n(C)c(=O)n2C	5	2
COc1ccc2oc(=Nc3ccc(C)cc3)c(-c3nc4ccccc4[nH]3)cc2c1	-6	-9
O=C(COc1cccc2c1CCC2=O)Nc1c(F)cccc1F	4&11	2&10
O=S(=O)(NCCCN1CCOCC1)c1ccc2c(c1)CCC2	-9	-8
O=C(OCc1cc(-c2ccc3c(c2)OCCO3)on1)c1ccc(Br)o1	-2	-2
CCN(CC)C(CNC(=O)C1CCCN(C(=O)c2ccco2)C1)c1ccsc1 (stereo not given)	5	2
CC(C)c1ccc(C(N)=S)cc1	3	4
Oc1[nH]c2cc(Cl)ccc2c1C=Nc1ccc(Br)cc1	3	0
Cn1nc(Br)c2c(N3CCN(CCO)CC3)ncnc21	-3	-3
O=C(Cc1cccs1)N1CCC(n2cnc3ccccc32)CC1	-6	-3
CC(C)NC(=S)NN=CC1CC=CCC1 (stereo not given)	5	1
CCc1cc(NC(=O)C(=O)NC(c2ccccc2)C2CC2C)n(C)n1 (stereo not given)	3	1
CN(C)c1ccc(C(=O)Nc2cccc(-c3cccc(-c4ccc(F)cc4)n3)c2)cc1	-3	-7
Cc1ccc(CN(Cc2ccc(F)cc2)C(=O)CN(C(=O)C2CCC2)C2CCCCC2)s1	-1	4
COCc1ccc(CN2CCCC(CNC(=O)c3cccc(OC)c3OC)C2)o1 (stereo not given)	14	7
O=C(CCCn1nc(-c2ccco2)ccc1=O)Nc1ccc(Oc2ccccc2)cc1	-2	-1

5 records drawn at random from those above, as already listed:
SMILES	NPYLR7 ag	NPYLR7 ag max-min
CC(C)NC(=S)NN=CC1CC=CCC1 (stereo not given)	5	1
O=S(=O)(NCCCN1CCOCC1)c1ccc2c(c1)CCC2	-9	-8
Cc1ccc2[nH]c3c(=O)n(CC(=O)NCc4cccs4)cnc3c2c1	0	-3
CCOC(CCN(C)C)CNC(=O)c1ccc(C#N)c(C)n1 (stereo not given)	0	-2
CCCCCCCn1c(CN2CCC(C)CC2)nc2c1c(=O)n(C)c(=O)n2C	5	2
